Rango-impB inh: qHTS Assay for Inhibitors of Rango (Ran-regulated importin-beta cargo) - Importin beta complex formation; Importin subunit beta-1 (Homo sapiens), Q14974; Rango CFP/YFP FRET sensor + importin beta, 45 min; Potency, µM (titrated, usually from 92.2 µM), for inactives: at the top dose inhibition of complex formation; 340,000 compounds, 0.031% hits; active = rising FRET ratio curve, often small or poorly fitted; inconclusive = mostly compound fluorescence or quenching in the first reads; inactive = flat curves in all reads;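 further: potency means the concentration at half of the fitted maximal effect; 0% = DMSO wells and 100% = buffer wells lacking importin beta; nearly all actives have a fitted effect of over 15% in size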
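FRET biosensor Rango (snurportin 1 IBB between N-terminal EYFP and C-terminal Cerulean), 50 nM in PBS/1 mM DTT/0.02% Tween-20/0.1% BSA, preincubated 5 min RT with compound; 0.125 microM importin beta added, 45 min RT, CFP/YFP FRET ratio read.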
miR-21 FLuc: qHTS Assay for Modulators of miRNAs and/orActivators of miR-21; HeLa miR-21 FLuc reporter, luciferase, 48 h; Potency, µM (doses to about 38.3 µM), for the others: at the highest dose reporter change, positive = more light; 340,000 tested, under 10 active; AID 2288, 2010; active = well fitted rising curve with a large enough effect; inconclusive = small, poorly fitted or top-dose-only effect; inactive = no such curve, though single readings can be large or run the other way;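 further: % of control where 0% means no effect; miR-21 action dims this reporter so a rising signal means less miR-21 action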
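HeLa miR-21-FLuc reporter line, endogenous miR-21; 2000 cells/well in DMEM/10% FBS; compound titration up to ~40uM final, 48 h, 37 degree Celsius; luciferase detection reagent, 15 min lysis, CCD luminescence.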
GLA inh pH 4.5: qHTS Assay for Inhibitors of Human alpha-Galactosidase at pH 4.5 | purified enzyme, 4-MU-alpha-Gal fluorescence, pH 4.5 | activity change, negative = inhibition, % at 105 µM | 230,000 tested, under 10 active; inconclusive = small, poorly fitted or top-dose-only inhibition, or a rising curve; inactive = flat fitted curve, though single readings scatter; no compound was filed as active;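 further: 0% = full activity with enzyme and -100% = basal without enzyme; dose as in the result columns while the protocol names 77 µM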
Target sequence (P06280 whole entry, looked up): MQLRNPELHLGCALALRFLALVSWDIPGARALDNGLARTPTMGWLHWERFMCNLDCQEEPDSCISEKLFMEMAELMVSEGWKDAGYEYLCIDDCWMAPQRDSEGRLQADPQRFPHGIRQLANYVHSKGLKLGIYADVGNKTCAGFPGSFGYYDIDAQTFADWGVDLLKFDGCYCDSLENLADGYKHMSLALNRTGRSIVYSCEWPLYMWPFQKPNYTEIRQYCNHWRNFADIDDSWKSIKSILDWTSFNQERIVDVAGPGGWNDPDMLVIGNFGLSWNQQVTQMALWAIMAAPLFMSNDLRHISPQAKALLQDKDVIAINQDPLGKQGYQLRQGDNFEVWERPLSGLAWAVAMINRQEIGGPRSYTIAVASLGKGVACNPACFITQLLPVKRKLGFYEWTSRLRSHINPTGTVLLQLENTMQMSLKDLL
Rango release inh: qHTS Assay for Inhibitors of RanGTP induced Rango (Ran-regulated importin-beta cargo) - Importin beta complex dissociation; Snurportin-1 (Homo sapiens) + GTP-binding nuclear protein Ran (Homo sapiens) + Importin …; Biochemical FRET Rango-importin beta, RanGTP-induced dissociation; Potency, µM (top dose mostly 46.1 µM), inactives show at the highest dose activity change, negative = inhibition; 340,000 compounds, 0.071% hits; AID 540253, 2011; active means falling FRET ratio curve, often poorly fitted, with flat reads before Ran was added; inconclusive means other falling curves, or compound fluorescence or quenching; inactive means flat or rising ratio curve;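 further: potency means the concentration at half of the fitted maximal effect; % of control where 0% means no effect; nearly all actives have a fitted effect of over 45% in size; -100% = wells without RanGTP and RCC1; the record marks most hits as doubtful in a second field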
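Rango (0.1 uM)–importin beta (0.25 uM) complex; RanGTP-RCC1 trigger; 45 min RT; CFP/YFP FRET read.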
Active calls of the source: *; ? = inconclusive; · = no result given; & = joins results of further samples. This is a subset. The share of hits here may be higher or lower than overall.

no.	canonical_smiles	Rango-impB inh	miR-21 FLuc	Rango release inh	GLA inh pH 4.5
1	O=C(CCNC(=O)c1ccc([N+](=O)[O-])cc1)NNC(=O)c1ccccc1F	-0.3%	·	12%	·
2	Cc1nnc(SC(C)C(=O)Nc2ncc(Cl)cc2Cl)n1Cc1ccccc1 (stereo not drawn)	-1.9%	3%	2%	9
3	Cc1cc(C)c(S(=O)(=O)NCc2csc(C)n2)c(C)c1	1.0%	0%	3%	·
4	CC(C)CCNc1nc(N)c([N+](=O)[O-])c(NC2CCCCC2)n1	2.5%	0%	-15%	·
5	CC(=O)NS(=O)(=O)c1ccc(NC(=O)[C@@H]2CCCN2S(=O)(=O)c2ccc(Cl)cc2)cc1	-0.6%	·	1%	·
6	CCN(CC)CCNC(=O)c1ccc(NC(=O)c2ccc(C(=O)c3ccccc3)cc2)cc1	0.3%	·	1%	·
7	COc1cc(C)c(CN2CCC(n3nccc3NC(=O)C3CC3)CC2)cc1C	-3.0%	4%	-7%	·
8	Cc1ccc(C(C)C)c(OCCNC(=O)c2cncc(Br)c2)c1	0.7%	10%	-9%	0
9	O=C(NCc1ccccc1F)C(=O)NCC1CCCN1S(=O)(=O)c1cccs1 (stereo not drawn)	1.7%	·	-13%	·
10	Cc1ccc(C2CC(c3cccs3)=NN2C(=O)CSC2=NCCS2)cc1 (stereo not drawn)	4.5%	3%	5%	·
11	CC1CN(C(=S)Nc2ccccc2)C(C)CN1C=O (stereo not drawn)	0.2%	·	-2%	·
12	COc1ccc(CC(=O)Nc2nn(C)c3nc4c(C)cccc4cc23)cc1	?	6%	?	5
13	CCOc1ccccc1N1C(=O)c2cccnc2C1=O	-2.3%	-5%	-8%	-1
14	Cc1cc(=O)oc(C)c1C(=O)Nc1ccc(Cl)cn1	-0.3%	-2%	15%	-2
15	Cc1c(C(=O)N2CCN(c3ccccc3F)CC2)sc2nc(-c3ccccc3)cn12	1.3%	0%	8%	-12
16	COc1ccc(C(CNC(=O)c2cccc(S(=O)(=O)Nc3ccccc3OC)c2)N2CCCC2)cc1 (stereo not drawn)	-0.7%	·	0%	·
17	c1ccc(Cc2nc3ccccc3[nH]2)cc1	0.9%	-12%	1%	·
18	O=C(O)CCNS(=O)(=O)c1ccc(Oc2ccccc2Cl)cc1	2.0%	-9%	30%	-1
19	CC(=O)c1ccc(N2CCN(C(=O)C3CCN(S(=O)(=O)c4ccc5c(c4)CC(C)N5C(=O)C4CC4)CC3)CC2)cc1 (stereo not drawn)	-0.6%	17%	1%	·
20	Cc1c(C(=O)Nc2ccc3c4c(cccc24)CC3)cccc1[N+](=O)[O-]	-4.0%	-14%	-15%	-6
21	COC(=O)C1OC2(OC1C(=O)OC)c1ccccc1-c1ccccc12 (stereo not drawn)	0.6%	-6%	-3%	1
22	COc1cc2cc(CN(CCO)C(=O)c3cccs3)c(=O)[nH]c2cc1OC	4.4%	-3%	-12%	7
23	Cc1cc(=O)n(CCO)c(O)c1C#N	0.2%	-2%	-5%	-2
24	Nc1nonc1C(=O)NCCNC(=O)c1cccc(Cl)c1	5.6%	-3%	16%	·
25	CCn1ncc(CNC(=O)C2(C)CC2(Cl)Cl)c1C (stereo not drawn)	-0.3%	-2%	15%	4
26	Cc1c(C)n(C)c2ccc(C(=O)N3CCN(c4ccccc4)CC3)cc12	-0.7%	-4%&0%	?	·
27	O=C(O)c1cccc(NC(=O)c2ccc(N3C(=O)c4ccc(C(=O)Nc5cccc(C(=O)O)c5)cc4C3=O)cc2)c1	-1.0%	0%	16%	·
28	COC(=O)c1ccc(NC(=O)Cn2nnc(-c3cccs3)n2)cc1	2.8%	0%	-9%	-6
29	Cc1cc2nc3c(=O)[nH]c(=S)[nH]c3nc2cc1NC(=O)C(F)(F)F	?	-61%	?	·
30	O=C1CN=C(Nc2ccc(Cl)cc2)N1c1ccccc1	4.4%	-3%	36%	-18
31	Cc1ccccc1NS(=O)(=O)c1ccc(C(=O)N2CCCC(C(F)(F)F)C2)cc1 (stereo not drawn)	1.5%	·	-2%	·
32	Cc1c(-n2c(=O)n(Cc3ccccc3)c(=O)c3[nH]cnc32)cccc1S(C)=O (stereo not drawn)	-0.3%	-8%	-6%	·
33	O=C(c1ccc(S(=O)(=O)N2CCCCC2)cc1)c1nnc(-c2ccc(Cl)cc2)o1	1.2%	2%	-11%	-9
34	CC(C)(O)[C@H](O)COc1c2ccoc2cc2oc(=O)ccc12	-1.6%	-2%	19%	0
35	CC(C)OC(=O)CN1CCN(c2ccc(Cl)cc2)CC1	0.0%	2%	0%	0
36	CCOC(=O)N1CCN(C(=O)CSCc2ccc(Cl)cc2)CC1	-2.5%	-13%	10%	·
37	Cc1ccc(OCC(=O)OCC(=O)N2c3ccccc3CC2C)cc1C (stereo not drawn)	2.2%	·	1%	·
38	CC(C)=Cc1c(O)nc2ccccn2c1=O	-0.8%	2%	-8%	3
39	c1ccc(-c2cc(-c3ccccc3)n3ncnc3n2)cc1	-1.7%	-3%	-22%	-1
40	O=C(O)c1csc(-c2ccc(Cl)cc2)n1	-1.7%	3%	1%	-4
41	CC(Oc1ccc(Cl)cc1Cl)C(=O)NNC(=O)C(=O)N1CCCC1 (stereo not drawn)	-0.2%	7%	-2%	·
42	S=C(Nc1ccccc1Cl)NC1CC2CCCC(C1)N2C1CC1 (stereo not drawn)	3.5%	1%	-4%	1
43	OCCCCNCc1ccc(OCc2ccccc2)cc1	-1.0%	-26%	0%	2
44	CCOC(=O)c1ccccc1N=Cc1c(O)c2ccccc2oc1=O	0.0%	0%	-2%	·
45	Cc1ccc(NC(=O)CCSc2nnnn2-c2ccc3c(c2)OCO3)cc1C	0.3%	-1%	7%	-3
46	O=C(c1ccc(Cl)cc1)N1CCC(O)(CSc2ccc(Cl)cc2)CC1	-0.1%	11%	1%	?
47	O=C(NCC(=O)N1CCN(c2ccccc2O)CC1)c1ccccc1	-3.2%	-47%	-2%	·
48	CC(C)(C)NC(=S)NNC(=O)c1ccncc1	-0.3%	-6%	2%	-1
49	CCOc1ccc(NS(=O)(=O)c2ccc(C(=O)NCc3ccncc3)cc2)cc1	-1.9%	·	12%	·
50	Cc1ccccc1NC(=O)CN1C(=O)NC2(CCc3ccccc32)C1=O (stereo not drawn)	0.8%	·	1%	·

Following part.
no.	canonical_smiles	Rango-impB inh	miR-21 FLuc	Rango release inh	GLA inh pH 4.5
51	Cc1nc(SC(C)C(=O)c2c(N)n(C)c(=O)n(C)c2=O)c2c(C)c(C)sc2n1 (stereo not drawn)	-2.7%	·	?	·
52	CCC(OC(=O)c1nsc(Cl)c1Cl)C(=O)NCc1cccs1 (stereo not drawn)	0.1%	-7%	-2%	-3
53	COc1ccc(NC(=O)c2nc(S(=O)(=O)Cc3cccc(C)c3)ncc2Cl)c(OC)c1	-2.3%	-7%	16%	·
54	CSc1c(C#N)c(N)nc2sc(C(=O)c3ccc(Cl)c(Cl)c3)c(N)c12	5.5%	-1%	-8%	-8
55	COc1ccc(CNC(=S)Nc2ccc3nc(N4CCOCC4)cc(C)c3c2)cc1	-3.2%	-13%	-9%	-8
56	O=C(OCC(=O)N1CCc2ccccc2C1)c1ccc(OC(F)F)cc1	0.7%	·	7%	·
57	COc1cc(NC(=O)C2CCCCC2)c(OC)cc1NC(=O)CCC(=O)NCc1ccco1	?	-1%	-6%	0
58	CCCNC(=O)Cn1cnc2sc(C(=O)N3CCN(CCC)CC3)c(C)c2c1=O	0.7%	-4%	-4%	6
59	COc1ccc(CC(=O)OCC(=O)Nc2cc(Cl)ccc2C)cc1	0.1%	·	-1%	·
60	Cc1ccc(N2CC(C(=O)NCC3CCCO3)CC2=O)cc1Cl (stereo not drawn)	0.0%	2%	12%	6
61	O=C(c1cc(C2CC2)on1)N1CCCC(N2CCN(c3cccc(C(F)(F)F)c3)CC2)C1 (stereo not drawn)	-0.2%	26%	5%	·
62	O=C(Cc1ccc(Nc2nc3ccc(Br)cc3[nH]2)cc1)NCCc1cccs1	-0.7%	-3%	18%	-13
63	N=C(N)SCc1ccccc1Cl	-1.3%	3%	6%	-9
64	Cc1cc(OCC(=O)Nc2cccnc2)c2c(C)c(C)c(=O)oc2c1	1.3%	0%	11%	·
65	CNc1nc(C)cc(C)c1S(=O)(=O)c1ccc(C)cc1	-1.9%	9%	-7%	4
66	CC1CCN(c2ncnc3c2cnn3Cc2ccc(Cl)cc2)CC1	-0.9%	-11%	-21%	4
67	Cc1ccc(C(=O)NN=CC(=O)c2ccccc2)c(C)c1	2.5%	·	0%	·
68	COC(=O)c1cc(N=CC2=C(O)CC(C)(C)CC2=O)cc(C(=O)OC)c1	0.0%	-9%	13%	-12
69	O=C(NCCS(=O)(=O)N1CCN(c2ccccc2F)CC1)C1CC(=O)N(c2ccc(F)cc2)C1 (stereo not drawn)	1.0%	0%&0%	3%	·
70	CC(=O)Nc1ccc2c(CSc3nncs3)cc(=O)oc2c1	?	-13%	-13%	6
71	COc1ccc(-[n+]2c(C)cc(/C=C3\Sc4ccccc4N3C)cc2C)cc1	?	?	?	-21
72	COc1ccccc1N1CCN(C(=O)C2=CC=CN3CCS(=O)(=O)N=C23)CC1	0.1%	·	12%	·
73	CC(Sc1nncn1C)C(=O)Nc1ccc(S(N)(=O)=O)cc1 (stereo not drawn)	-0.1%	3%	5%	1
74	O=C(Nc1ccc(C(=O)O)cc1)/C(=C\C=C\c1ccccc1)NC(=O)c1ccccc1Br	0.0%	-8%	-10%	·
75	O=C(Cn1ccc([N+](=O)[O-])n1)c1ccccc1	-5.3%	-6%	-3%	-4

An excerpt from above in order of the Rango-impB inh value, high to low:
no.	canonical_smiles	Rango-impB inh	miR-21 FLuc	Rango release inh	GLA inh pH 4.5
30	O=C1CN=C(Nc2ccc(Cl)cc2)N1c1ccccc1	4.4%	-3%	36%	-18
64	Cc1cc(OCC(=O)Nc2cccnc2)c2c(C)c(C)c(=O)oc2c1	1.3%	0%	11%	·
53	COc1ccc(NC(=O)c2nc(S(=O)(=O)Cc3cccc(C)c3)ncc2Cl)c(OC)c1	-2.3%	-7%	16%	·

Following part.
no.	canonical_smiles	Rango-impB inh	miR-21 FLuc	Rango release inh	GLA inh pH 4.5
76	Cc1ccc(NC(=O)N[C@@H](CC(C)C)C(=O)O)c(C)c1	?	0%	5%	2
77	COc1ccc(NC(=O)N(C)C[C@H]2Oc3ccc(NC(=O)Nc4c(C)noc4C)cc3C(=O)N([C@H](C)CO)C[C@H]2C)cc1	0.2%	·	-2%	·
78	CCOc1ccccc1OCCOc1ccccc1CC	-0.5%	-2%	1%	1
79	COc1ccc(NC(=O)CN(C)C(=O)c2cccc(S(=O)(=O)Nc3ccc(OC)cc3)c2)cc1	4.4%	·	1%	·
80	O=C(CN1CCN(S(=O)(=O)c2ccccc2)CC1)NCCc1ccccc1	-0.1%	4%	-1%	·
81	COc1cc(C2NC(=O)NC(C)=C2C(=O)OCC2CCCCC2)cc(Cl)c1O (stereo not drawn)	8.4%	-19%	-12%	·
82	CCCCc1nc2sc3c(=O)[nH]cnc3c2c2c1CCCC2	-0.2%	0%	-9%	5
83	O=C(C1COc2ccccc2O1)N1CCN(c2nc3ccccc3s2)CC1 (stereo not drawn)	2.1%	-11%	2%	·
84	S=C(Nc1ccccc1Cl)N1CCN(Cc2ccccc2)CC1	-2.2%	-10%	-4%	9
85	COc1ccc(NC(=O)C2CCC2)cc1S(=O)(=O)N1CCOCC1	-3.8%	·	15%	·
86	CC1(C)CC(=O)c2cc(OCC(=O)N3CCN(c4ccccc4F)CC3)ccc2O1	-3.9%	-1%	-1%	-5
87	Cc1ccc(NC(=S)NC2CCCC2)cc1	0.7%	-38%	1%	11
88	c1ccc2c(c1)ccc1ccccc12	-1.1%	·	-3%	·
89	CC(=O)c1ccc(N2CCN(C(=O)c3cccs3)C(C)C2)c(F)c1 (stereo not drawn)	-0.3%	5%	9%	·
90	COc1ccccc1NC(=O)COC(=O)Cc1ccc(S(=O)(=O)N2CCCCC2)s1	-3.9%	1%	3%	3

Assay outcomes: PubChem, National Center for Advancing Translational Sciences (NCATS)
